Assay outcomes (PubChem)
HIV TAR-Tat: TAR RNA-Tat peptide displacers, HIV-1, primary screen, biochemical, FRET, FAM/TAMRA-labeled Tat; z-score (concentration not given with the values); 100,000 compounds, 0.6% hits; AID 1259389, 2018; HIV-1 TAR RNA, Tat peptide displacement FRET; hits give high values;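 note: score is relative to mean and SD of negative controls; some compounds called inactive have numbers as strong as hits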
CDC25B-CDK2 inh: primary biochemical HTRF screen for blockers of M-phase inducer phosphatase 2 binding to CDK2/cyclin A. z-score (no concentration beside the values). HTRF CDC25B-CDK2/CyclinA binding, anti-His/anti-Flag; hits give high values. AID 1259370, 2018. 94,000 compounds, 0.72% hits;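 note: score is relative to mean and SD of negative controls; strong numbers were not always called active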
* marks the source's active call; other numbers are inactive results; . = no result given.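 Rule for the calls: active = z-score from 3 up in half or more of its runs; inactive = the rest.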 Not a hit list; 0.87% or so of the library scored in one or more.

Value order: HIV TAR-Tat	CDC25B-CDK2 inh
- CC(=O)Oc1ccc2c(=O)c(-c3ccc(F)cc3)c(C(F)(F)F)oc2c1C
→ 0.84	-5.33
- Cc1nc2c(c(C)nn2C(C)(C)C)c(C)c1CCC(=O)NC(C)CCc1ccco1 (configuration not stated)
→ 0.61	-3.11
- CC1CCC(Nc2ncnc3onc(-c4ccc(Cl)cc4)c23)CC1 (configuration not stated)
→ 1.39	.
- CCOC(=O)c1nn(-c2ccc(F)cc2)c(=O)cc1NC1CCCCC1
→ 2.05	.
- CC(C)(C)c1csc(NC(=O)CCS(=O)(=O)c2ccc(Cl)cc2)n1
→ 1.46	.
- CCOC(=O)C1=C(C)N(C(C)=O)C(SC)=NC1c1ccccc1 (configuration not stated)
→ .	-0.82
- Oc1ccc(-c2cc(-c3ccc(O)cc3)nc(-c3ccccc3)n2)cc1
→ .	2.47
- C[C@H](NS(=O)(=O)c1ccc(F)cc1)C(=O)O
→ 0.57	1.79
- CC1=C(c2ccc(Cl)cc2)S(=O)(=O)N=C1Nc1ccc(F)cc1F
→ -0.22	-1.35
- COc1ccc(C2/C(=C(\O)c3ccc(Cl)cc3)C(=O)C(=O)N2c2cccnc2)cc1OC (configuration not stated)
→ 1.15	-3.66
- O=C(CN1C(=O)c2cccnc2Sc2ccccc21)NCCCN1CCCC1=O
→ 1.11	.
- CC(C)c1nnc(NC(=O)c2csnn2)s1
→ -1.4	-0.75
- Cc1ccc(C2c3c(oc4ccc(F)cc4c3=O)C(=O)N2c2nc(C)c(C)s2)cc1 (configuration not stated)
→ 2.13	-1.45
- Cc1ccccc1CN1C(=O)C(O)(CC(=O)c2ccc(Br)cc2)c2ccccc21 (configuration not stated)
→ .	-0.5
- CCC(C)NC(=O)c1c(C)oc2nc(C)nc(N3CCOCC3)c12 (configuration not stated)
→ 1.26	.
- CN(C)c1ccc(/C=N/NC(=O)CC#N)cc1
→ .	-0.64
- O=C(C1=C(OC(=O)c2ccco2)c2ccccc2S(=O)(=O)N1C(=O)c1ccco1)c1ccccc1
→ 1.14	1.6
- Cc1ccc2scc(N3CCN(C(=O)c4ccco4)CC3)c(=O)c2c1
→ 1.18	.
- CCOc1nnc(-c2ccc(OC)cc2)c2ccccc12
→ 1.87	-1.74
- Cc1ccc(N2C(=O)CC(NCc3ccc4c(c3)OCO4)C2=O)cc1Cl (configuration not stated)
→ 0.71	-0.45
- CCC(C)NC(=O)CCCn1nc(C)c2sc3ccccc3c2c1=O (configuration not stated)
→ 2.46	-2.75
- Cc1ccc(N2C(=O)c3cccc4cccc(c34)C2=O)c(C)c1
→ .	0.8
- O=C(C[n+]1ccn2cccc2c1-c1ccccc1)c1ccccc1
→ -1.02	-1.33
- CCc1ccc(S(=O)(=O)c2cn(CC)c3cc(N4CCN(CC)CC4)c(F)cc3c2=O)cc1
→ -0.55	.
- O=C(c1cc2ccccc2c(=O)o1)N1CCN(c2ccc(F)cc2)CC1
→ .	-1.57
- O=C1c2ccccc2-c2onc3c(N4CCOCC4)cc(Nc4ccccc4)c1c23
→ 0.02	-2.2
- O=C(Nc1cccc(F)c1)c1c(O)c2cccc3c2n(c1=O)CCC3
→ 1.92	.
- O=C(CSc1nnc(-c2ccco2)n1-c1ccc2c(c1)OCCO2)c1ccccc1
→ .	-1.14
- CCc1nn2c(=O)cc(COC(=O)C(C)(C)C)nc2s1
→ 0.72	.
- Cc1ccc2oc(-c3ccc(NC(=O)c4cc([N+](=O)[O-])ccc4Cl)cc3O)nc2c1
→ .	-1.39
- Cc1c(C(=O)N2CCC(C)CC2)sc2ncn(CC(=O)N3CCC(C)CC3)c(=O)c12
→ .	-0.11
- CC1=CC(C)(C)N2C(=O)C(=O)c3cc(OC(=O)Cc4ccccc4)cc1c32
→ -0.06	0.93
- Clc1ccc(-c2noc(CSC3=NCC4CCCC4N3)n2)cc1 (configuration not stated)
→ .	-1.4
- COC(=O)c1c(NC(=O)CCC(=O)O)sc2c1CCCC2
→ 1.27	-1.62
- O=C(CCc1nnc2ccc(N3CCCC3)nn12)NCc1ccco1
→ 0.9	.
- O=C(COc1ccc(Cl)cc1)N1CCN(S(=O)(=O)c2cc3c4c(c2)CCN4C(=O)CC3)CC1
→ 1.19	.
- O=c1c(S(=O)(=O)c2ccc(F)c(F)c2)c[nH]c2c(F)cccc12
→ -0.04	-0.59
- O=C(CCCn1c2ccccc2c2cn[nH]c(=O)c21)NCc1ccc2c(c1)OCO2
→ -1.46	-0.32
- CCN(C(=O)Cn1c(=O)oc2cc(S(=O)(=O)N3CCCC3)ccc21)c1ccccc1
→ 1.68	-0.23
- CCCCCCCCCc1noc(-c2ccc(OCCCCCCC)cc2)n1
→ .	-1.49
- CC1=NS(=O)(=O)c2cc(C(=O)NCC3CCCO3)ccc2N1CC(C)C (configuration not stated)
→ 0.36	.
- CC(C)c1nn2c(=O)cc(COC(=O)c3ccc(Cl)cc3)nc2s1
→ 0.53	.
- CS(=O)(=O)CS(=O)(=O)Nc1ccc2c(c1)OCCO2
→ .	-1.5
- Cc1n[nH]c(C)c1CC(=O)NCc1cccs1
→ 0.01	.
- Cc1ccc(Nc2nc(NCc3ccco3)nc(N)c2[N+](=O)[O-])cc1C
→ 0.15	.
- COc1cc(OC)cc(-n2nnc(-c3nc(-c4cccs4)no3)c2N)c1
→ 1.55	.
- COc1ccc(C2OC(=O)C3(CCCCC3)C(=O)C2(C)C)cc1OC (configuration not stated)
→ -1.18	-2.33
- Cc1ccc(CNC(=O)c2cnc(N3CCOCC3)nc2)o1
→ 0.85	.
- O=C(Cn1nnc2sc3c(c2c1=O)CCCC3)Nc1ccc(Br)cc1
→ 0.82	0.58
- O=S1(=O)CCN(Cc2ccc(N3CCOCC3)cc2)CC1
→ .	-0.47
- O=C(c1ccco1)N(Cc1cccs1)c1ccccn1
→ 2.16	-1.85
- O=C(Nc1nc(-c2ccc([N+](=O)[O-])cc2)cs1)c1ccc(S(=O)(=O)N2CCCCCC2)cc1
→ .	-5.17
- O=c1c2c3c(sc2n2c(=S)[nH]nc2n1Cc1ccccc1)CN(Cc1ccccc1)CC3
→ .	-22.2
- O=c1c2cc(N3CCOCC3)ccc2[nH]c(=S)n1Cc1ccco1
→ .	2.57
- O=C1COc2cc(S(=O)(=O)NC3CCCc4ccccc43)c(Cl)cc2N1 (configuration not stated)
→ -3.23	.
- O=C(Nc1ccccc1N1CCCCC1)C1CCCCC1
→ .	0.53
- CCCC(Nc1ccccn1)n1nnc2ccccc21 (configuration not stated)
→ .	-0.87
- Cc1noc(C)c1S(=O)(=O)Nc1ccc(C(=O)O)cc1
→ .	-3.95
- Cc1ccc(-c2nnc(Nc3ccccc3)c3ccccc23)cc1S(=O)(=O)NCCO
→ 1.27	-1.25
- O=C(NCCC1=CCCCC1)C1=Cc2ccccc2OC1
→ 0.96	.

(continued)
Value order: HIV TAR-Tat	CDC25B-CDK2 inh
- CC1(C)Cc2nc3sc4c(NCc5ccccc5)ncnc4c3cc2CO1
→ 0.15	-1.42
- COc1ccc(Cl)cc1S(=O)(=O)Nc1ccc2c(c1)COC2=O
→ 0.08	-1.05
- N#Cc1cnc(Sc2nc3ccccc3s2)nc1N
→ .	-2.3
- N#CCSc1nsc(SCC#N)n1
→ .	-1.39
- Cc1sc2c(c1C)CSC(C(=O)NCCCN1CCCC1)=C2
→ 0.24	.
- O=C(Nc1cccs1)Nc1c(F)cc(F)cc1Br
→ -0.47	0.3
- COC(=O)c1cccc(Nc2c(-c3ccc(SC)cc3)nc3nc[nH]n23)c1
→ 0.98	.
- Cc1nn(CCCC(=O)N(C)Cc2ccccc2)c(=O)c2c1sc1ccccc12
→ 2.51	-2.66
- Cc1nc(N2CCCCC2)c2c(C(=O)O)noc2n1
→ 1.7	0.53
- Cc1ccc(-c2coc(-c3cccc(NS(=O)(=O)c4ccc(C)cc4)c3)n2)cc1
→ 0.17	.
- CC(=O)N1CCC2(CC1)OC(=O)C(C)=C2C(=O)NCCCN1CCOCC1
→ 1.49	.
- CCn1nc(-n2cnnc2)c(NS(=O)(=O)c2cccc(Cl)c2)c1C
→ 0.85	-1.45
- Cc1cc(-c2ccc(C)c(S(=O)(=O)N(Cc3cccs3)C(C)C)c2)on1
→ 1.56	.
- O=C1C2CCCN2C(c2ccccc2)N1c1cccc(Cl)c1 (configuration not stated)
→ 0.01	0.86
- CC(C)(C)NC(=O)c1ccc2c3c(onc13)-c1ccccc1C2=O
→ -8.93	-2.24
- COc1ccc(C2C=C3Oc4ccccc4N=C3NN2)cc1 (configuration not stated)
→ .	-0.22
- CCCNC(=O)C1=Cc2cc(Cl)ccc2OC=C1
→ 0.14	-1.14
- CCc1nnc(SCC(=O)Nc2cccc(SC)c2)c2cc3sccc3n12
→ 3.78	.
- COc1cc2c(cc1OC)-c1nnc(-c3cc(OC)c(OC)c(OC)c3)n1C(C)(C)C2
→ .	-0.87
- O=S(=O)(c1cccc2cccnc12)N1CCCC1
→ .	1.43
- Cn1cc(-c2cc3n(n2)CCC(=O)N3CCCC(=O)NCC2COCCO2)c2ccccc21 (configuration not stated)
→ 0.65	.
- Cc1nc2ccccn2c(=O)c1Cc1nnc(SCC(=O)Nc2ccc(C(C)C)cc2)n1C
→ 0.6	-0.2
- COc1cc(CCC(C)=O)ccc1OC(=O)c1c(-c2ccccc2)noc1C
→ .	-0.43
- CC(NC(=O)Nc1ccc(F)cc1)c1c(-n2cccc2)sc2c1CCCC2 (configuration not stated)
→ -1.85	-1.01
- CC1CCc2c(cnc3c(C(=O)O)cnn23)C1 (configuration not stated)
→ -0.63	1.1
- COc1nc(-c2ccccc2)nc(C)c1Cc1ccccc1
→ 2.15	0.41
- O=C(NCc1ccco1)c1csc2c1CCCCC2
→ 2.2	-1.09
- COc1ccccc1Nc1nc(NCc2ccco2)c2ccccc2n1
→ 1.7	-1.47
- Cc1ccc(CNc2nnc(C)c3nnn(Cc4ccc(F)cc4)c23)cc1
→ 0.87	-0.52
- O=C(CCS(=O)(=O)c1cccc2nsnc12)N1CCc2ccccc2C1
→ -0.64	-1.68
- CCOC(=O)c1cnn2c(C(F)(F)F)cc(-c3cn(CC)nc3C)nc12
→ .	0.45
- Cn1c(SCc2ccccc2Cl)nc(=O)c2c1NC(=O)CC2c1cccc(O)c1 (configuration not stated)
→ 1.28	-0.68
- COc1ccc(C2C3=C(CC(C)(C)CC3=O)Nc3cc(OC)c(OC)cc32)cc1 (configuration not stated)
→ -0.8	-2.69
- Cc1[nH]c(C)c2c(=O)n(C)ncc12
→ .	-2.95
- O=C(CSc1nc2c(c(=O)n1CCc1ccccc1)SCC2)N1CCc2ccccc21
→ 1.12	.
- O=S(=O)(NCCc1csc2nc(-c3ccccc3)nn12)c1ccc2ccccc2c1
→ 2.22	.
- CC(C)Cn1cc(NC(=O)N2CCCc3ccccc32)c2ccccc2c1=O
→ 0.42	.
- CCCC12CN3CC(C)(CN(C1)C3c1cc(Br)ccc1O)C2=O (configuration not stated)
→ .	-1.29
- O=C(CC1OC(=O)c2ccccc21)c1ccccc1Cl (configuration not stated)
→ .	1.3
- CC1CCCC(NC(=O)c2ccc(CNc3c(N4CCCC4)c(=O)c3=O)cc2)C1C (configuration not stated)
→ 3.55	-0.59
- COc1cccc2cc(C(=O)CC3(O)C(=O)N(CCc4ccccc4)c4ccccc43)c(=O)oc12 (configuration not stated)
→ .	-0.67
- COc1ccc(C2CC(=O)c3cnc(N4CCN(c5ccccn5)CC4)nc3C2)cc1OC (configuration not stated)
→ 1.59	-3.27
- COc1cc(C(=O)NCc2ccco2)cc(OC)c1OC
→ .	1.91
- O=C1c2oc3ccc(F)cc3c(=O)c2C(c2ccc(O)cc2)N1Cc1ccc(F)cc1 (configuration not stated)
→ 0.72	-0.95
- O=C(CN1Cc2ccccc2C1=O)N1CCN(C(=O)c2ccco2)CC1
→ 0.11	.
- COc1ccc(N2CCN(S(=O)(=O)c3cnc[nH]3)CC2)cc1
→ 0.36	-1.57
- O=C(Cn1c(=O)oc2cc(S(=O)(=O)NC3CCCC3)ccc21)Nc1ccc(F)cc1
→ -0.29	-0.27
- COc1cc(Nc2ncc3c(n2)CCN(Cc2ccc(OC)c(OC)c2)C3)cc(OC)c1
→ 0.89	.
- CCc1nn(CCCC(=O)NCc2ccccn2)c(=O)c2cc3oc(C)cc3n12
→ 2.51	-1.55
- CC(C)Oc1ccc(C2CC(=O)Nc3nc(SCc4cccc(Cl)c4)[nH]c(=O)c32)cc1 (configuration not stated)
→ 1.73	-1.42
- CCCCc1nn2c(=O)cc(CSc3nnc(NC(=O)C(C)C)s3)nc2s1
→ 0.33	.
- CCC(C(=O)O)n1nc(C)c2nn(-c3ccccc3)c(C)c2c1=O (configuration not stated)
→ 1.25	-0.36
- Cn1c(=O)[nH]c(=O)c2c1nc(CN1CCN(c3cccc(Cl)c3)CC1)n2CCN1CCOCC1
→ -1.03	-2.57
- O=C(c1ccc2c(=O)n3c(nc2c1)CCCCC3)N1CCc2ccccc2C1
→ -1.03	0.07
- O=C1Cc2cc(Cl)ccc2N1
→ .	1.16
- Cc1nc(-c2ccc(C)c(S(=O)(=O)N3CCN(c4cccc(C)c4C)CC3)c2)cs1
→ 1.31	.
- O=C(CCS(=O)(=O)c1ccc2c(c1)NC(=O)CS2)Nc1ccc(Cl)cn1
→ -1.03	.

As entered above:
COc1cc(C(=O)NCc2ccco2)cc(OC)c1OC @ CDC25B-CDK2 inh: 1.91
COc1ccc(C2CC(=O)c3cnc(N4CCN(c5ccccn5)CC4)nc3C2)cc1OC (configuration not stated) @ CDC25B-CDK2 inh: -3.27
O=C(CN1Cc2ccccc2C1=O)N1CCN(C(=O)c2ccco2)CC1 @ HIV TAR-Tat: 0.11

In the list so far, four have bromine:
Value order: HIV TAR-Tat	CDC25B-CDK2 inh
- Cc1ccccc1CN1C(=O)C(O)(CC(=O)c2ccc(Br)cc2)c2ccccc21 (configuration not stated)
→ .	-0.5
- O=C(Cn1nnc2sc3c(c2c1=O)CCCC3)Nc1ccc(Br)cc1
→ 0.82	0.58
- O=C(Nc1cccs1)Nc1c(F)cc(F)cc1Br
→ -0.47	0.3
- CCCC12CN3CC(C)(CN(C1)C3c1cc(Br)ccc1O)C2=O (configuration not stated)
→ .	-1.29
